UCH37 inh = human UCH37 deubiquitinating enzyme inhibition. inhibition, % (no concentration beside the values). purified proteasome/UCH37, Ub-AMC cleavage fluorescence. Q9Y5K5. hit rate 0.33% among 330,000;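 active = mean of two replicates above 20%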;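 also: 0% = compound-free wells with enzyme and 100% = wells lacking proteasome; stock transfer was 100 nL into about 20 µL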
Target sequence (Q9Y5K5 whole entry, looked up): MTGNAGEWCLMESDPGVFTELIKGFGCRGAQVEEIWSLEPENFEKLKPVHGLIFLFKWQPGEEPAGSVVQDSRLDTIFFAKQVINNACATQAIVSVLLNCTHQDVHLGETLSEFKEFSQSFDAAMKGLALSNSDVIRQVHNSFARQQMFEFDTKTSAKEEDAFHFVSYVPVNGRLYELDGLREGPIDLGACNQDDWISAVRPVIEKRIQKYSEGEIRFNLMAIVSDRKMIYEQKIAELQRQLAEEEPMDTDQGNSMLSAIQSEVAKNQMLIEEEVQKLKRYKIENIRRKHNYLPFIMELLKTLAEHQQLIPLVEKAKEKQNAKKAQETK
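Material: human UCH37 enzyme supplied as purified proteasome complex. Measure: % inhibition of Ub-AMC cleavage fluorescence. Medium: pH 7.4 Tris-HCl (50 mM) with ovalbumin, ATP-MgCl2, DTT. Times: 30 min preincubation with enzyme, 25 min cleavage at room temperature. Detection: AMC fluorescence intensity at 355/460 nm.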
Ecoli growth = E. coli growth inhibition; Escherichia coli growth, OD600, 23 h; hits give low values; OD600 absorbance (test concentration not listed); hit rate 0.21% among 330,000;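 active = OD600 absorbance below the run mean of sample wells minus 3.6 SD, in any replicate, cut at about 0.56 in these data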;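 also: stock transfer was 300 nL into about 60 µL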
FGF22 binding = shifts melting point of recombinant human FGF22 | hit rate 1.5% among 340,000 | recombinant FGF22 thermal shift, SYPRO orange fluorescence; percent of sucrose octasulfate shift, DMSO zero | calls only at 9.99 µM;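 active = melting point raised past a set limit in the mean and every replicate; three in four hits are not shown here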
HNF4A DNA FP = change in binding of human HNF4 alpha to DNA; P41235; HNF4a-FITC DNA binding, fluorescence polarization, 1 h; activity change, % at 10 µM; hit rate 0.3% among 360,000; in the data active = activity change above about 30%, passing the limit was not always enough;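 also: controls were the assay level and a saturating level of protein; the project sought stronger binding though the title names inhibitors; some compounds called inactive have numbers as strong as hits; positive values seem to mean higher polarization but the record does not say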
Target sequence (P41235 whole entry, looked up): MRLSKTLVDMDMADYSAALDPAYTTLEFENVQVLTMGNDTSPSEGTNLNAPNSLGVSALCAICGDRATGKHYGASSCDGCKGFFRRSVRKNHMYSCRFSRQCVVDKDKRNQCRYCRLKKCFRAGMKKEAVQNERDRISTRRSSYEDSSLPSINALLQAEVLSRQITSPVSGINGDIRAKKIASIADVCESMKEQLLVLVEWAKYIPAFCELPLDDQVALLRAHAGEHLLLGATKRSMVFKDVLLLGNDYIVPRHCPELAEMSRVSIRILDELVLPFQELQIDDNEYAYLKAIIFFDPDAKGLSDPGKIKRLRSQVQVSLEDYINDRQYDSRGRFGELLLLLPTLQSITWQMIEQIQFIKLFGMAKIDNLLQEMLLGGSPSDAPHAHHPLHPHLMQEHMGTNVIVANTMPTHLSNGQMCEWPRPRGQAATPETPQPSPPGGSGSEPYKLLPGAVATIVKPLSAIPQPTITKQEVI
Beta2AR agonist = activates human beta-2 adrenergic receptor causing internalization. P07550. Am2.2-beta2AR cells, FAP receptor internalization, flow cytometry; reference of the scale not given here. response, % (concentration not given with the values). hit rate 0.43% among 340,000. AID 504454;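 active = response above a set limit, near 3 SD of response in nonfluorescent compounds, cut at about 42% in these data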;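 also: stock transfer was 100 nL into about 11 µL; a reference agonist was the positive control; negative values mostly stem from fluorescent compounds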
ALR H2O2 inh = inhibitors of human sulfhydryl oxidase ALR; hit rate 3.8% among 290,000; AID 485317; inhibition, % (test concentration not listed); purified ALR, DTT oxidation, H2O2 HRP-luminol luminescence;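 active = mean and each replicate at 75% or more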;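 also: stock transfer was 7.5 nL into about 7.5 µL; 0% = neutral wells and 100% = wells with inactivated enzyme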
Target sequence (P55789 whole entry, looked up): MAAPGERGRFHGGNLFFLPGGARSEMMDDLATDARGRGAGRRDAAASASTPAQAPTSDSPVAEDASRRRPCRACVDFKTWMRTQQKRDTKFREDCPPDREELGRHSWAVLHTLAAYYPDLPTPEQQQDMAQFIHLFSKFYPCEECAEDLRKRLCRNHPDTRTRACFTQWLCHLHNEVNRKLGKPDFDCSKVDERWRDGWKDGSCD
LANA-H2A inh = blocks KSHV LANA binding to histone H2A/H2B. Q9QR71. cell-free LANA-H2A/H2B peptide, fluorescence polarization. inhibition, % (concentration not given with the values). hit rate 0.6% among 320,000; in the data active = inhibition mostly above about 10%, no sharp cut-off; inactive = mostly below about 6.7%;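 also: stock transfer was 7.5 nL into about 10 µL; 0% = median of vehicle wells and 100% = median of positive control wells; one replicate is shown; the record names a cut of 25% in any replicate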
An asterisk follows results filed as active; i = inactive; . = no result given.

SMILES	UCH37 inh	Ecoli growth	FGF22 binding	HNF4A DNA FP	Beta2AR agonist	ALR H2O2 inh	LANA-H2A inh
CCCn1nnnc1-c1cccc(Cl)c1	1.4	0.68	.	-3.8	5	-1	-0.9
CC(=O)Nc1ccc(S(=O)(=O)NCCC(=O)N2CCc3ccccc32)cc1	5.4	0.62	i	-3.2	-5	-10	-2.8
Cc1nc2sc(-c3ccccc3)cc2c(=O)[nH]1	-13	0.69	i	14	0	-5	5.9
CC(=C/c1ccccc1)/C=N/N1CCN(Cc2ccc(C)cc2)CC1	.	.	i	0.8	11	1	-5.3
CC1CCCC(C)N1/N=C/c1ccc(N(C)C)cc1 (stereo unspecified)	.	.	i	0.6	-2	66	-1.9
O=C(C[C@H]1C[C@H](C(=O)N2CCOCC2)[C@@]2(CCC3CCCC3)c3[nH]c4ccc(Cl)cc4c3CCN2C1=O)NCCc1ccccn1	0.7	0.68	i	-0.5	5	.	.
COC(=O)c1ccc(NC(=O)CCC(=O)c2ccc(F)cc2)cc1	5.4	0.69	i	-2.8	-2	-1	2.4
CN(Cc1ccccc1F)C(=O)CN1CCN(S(=O)(=O)c2ccc3c(c2)OCCCO3)CC1	1.1	0.68	i	0.5	-5	.	1.6
COc1ccc(C)cc1S(=O)(=O)N1CCc2ccccc2C1	.	.	i	0.7	1	2	-3.0
COc1ccc2c(c1OC)CN(C)CCc1cc3c(cc1C(O)C2)OCO3 (stereo unspecified)	1.6	0.68	.	-6.4	-4	-2	-4.8
Cc1c(C(=O)OCC(=O)N2CCC(C)CC2)oc2ccccc12	0.1	0.7	i	-0.8	-5	-3	3.4
COc1ccc(S(=O)(=O)Nc2cccc3c2O[C@H](CN(C)CC2CCCCC2)[C@@H](C)CN([C@H](C)CO)C3=O)cc1	0.1	0.79	i	-4.4	-4	-2	8.9
COc1cc(C2C(C(=O)N3CCOCC3)=C(C)NC3=C2C(=O)CCC3)ccc1OC(C)=O (stereo unspecified)	-163	0.67	.	-2.5	5	-11	-1.5
COc1ccc2c(c1)-c1c(sn(-c3ccc(OC)c(OC)c3)c1=S)C(C)(C)N2	2.5	0.78	.	-0.7	5	0	-1.0
COc1cccc(NC(=O)Cn2c3ccccc3c3nc4n(c(=O)c32)CCCS4)c1	-22	0.72	i	-0.2	0	.	1.5
CN(C(=O)c1cccc(NC(=O)Cc2ccc(NC(=O)C3CCN(C(=O)C4CCCCC4)CC3)cc2)c1)C1CCCCC1	4.7	0.69	i	-1.0	1	.	.
Cc1ccc(C(=O)C2=C(O)C(=O)N(CCCn3ccnc3)C2c2ccc(OC(C)C)cc2)o1 (stereo unspecified)	5.1	0.66	.	4.5	-6	0	-0.3
COc1ccccc1NC(=O)CC(=O)CSc1nnc(-c2ccc(C)cc2)n1C	5.5	0.74	.	2.2	-4	33	-0.6
Cc1c(C(=O)Nc2ccc(C(=O)Nc3ccccc3)cc2)cccc1[N+](=O)[O-]	-0.3	0.72	i	4.7	7	.	-1.4
CC(=O)c1c(C)[nH]c(C(=O)COC(=O)COc2ccccc2)c1C	3.1	0.64	i	2.5	-4	-3	1.8
COC(CNc1nc(SC)nc2sc3c(c12)CCN(C)C3)OC	-47	0.7	i	-1.6	-20	-8	0.7
COc1cc(C(=O)NCC(=O)N2CCN(S(=O)(=O)c3ccccc3)CC2)cc(OC)c1OC	0.3	0.61	i	-0.7	8	1	5.0
CCN(CC(=O)Nc1ccc(NC(C)=O)cc1)C(=O)c1cc2ccccc2oc1=O	2.1	0.72	i	3.5	-13	0	3.1
Cc1cc(C)c(C(=O)NCC2CCCO2)c(C)c1C(=O)NCC1CCCO1 (stereo unspecified)	1.0	0.69	i	0.3	-6	-1	1.6
Cc1cc(C)cc(N2CN=c3s/c(=C\c4ccco4)c(=O)n3C2)c1	.	.	i	-2.8	-8	-6	4.3
CCCOc1ccc(CN(CCO)CCO)cc1[N+](=O)[O-]	4.9	0.67	i	1.9	-8	-11	5.2
Cc1cc(C)cc(OCC(=O)Nc2cc(NC(=O)COc3cc(C)cc(C)c3)cc(C(=O)O)c2)c1	3.3	0.68	.	-3.4	5	3	4.5
Cc1ccc2c(c1)nnn2C1CCN(S(=O)(=O)c2cccc(S(=O)(=O)N(C)C)c2)CC1	0.4	0.71	.	3.1	-12	.	1.0
COc1ccc2cc(C)c(SCC(=O)Nc3cc(C)on3)nc2c1	2.8	0.7	.	-2.9	-10	2	-7.8
Cc1cccc(OCC(O)Cn2ccnc2C)c1 (stereo unspecified)	1.2	0.68	i	0.1	5	-37	8.3
COc1cc(C)nc(N2CCC(C(=O)NC3CCCCC3)CC2)n1	2.0	0.65	.	-1.7	-10	-4	3.4
CCCNC(=O)COc1coc(CN2CCN(c3ccccc3)CC2)cc1=O	0.5	0.7	i	1.0	-4	52	-0.1
Clc1ccc(Cc2ccc(Cl)nn2)c(Cl)c1	3.0	0.71	.	1.3	-2	6	4.5
Cc1cccc(NC(=S)NNC(=O)c2ccc(Br)o2)c1	4.2	0.73	.	2.0	-2	94*	-1.3
Nc1c([N+](=O)[O-])c(=O)sc2ccccc12	6.4	0.54	i	-0.9	-14	-5	-1.7
Cn1cccc1Cc1nnc(SCC(=O)Nc2cccc(Cl)c2)n1-c1ccc(F)cc1	3.8	0.76	i	0.3	-6	-4	-2.0
Cc1c(NC(=S)N/N=C\c2ccccc2O)c(=O)n(-c2ccccc2)n1C	.	.	i	0.6	4	39	1.4
COC(=O)C(NC(=O)CCc1c(C)nc2ncnn2c1C)C(C)C (stereo unspecified)	1.9	0.73	.	-3.8	-9	.	-2.0
Cc1cc(C)n(-c2nc(C)nc3c2cnn3-c2ccccc2)n1	-2.4	0.68	i	3.0	8	-4	2.6
COc1ccc(CCNC(=O)COc2ccc(-c3ccc(C)cc3)cc2)cc1OC	6.1	0.68	i	-2.9	4	-5	2.4

Profiles, quoted from the list.
`COc1cc(C)nc(N2CCC(C(=O)NC3CCCCC3)CC2)n1` as listed: UCH37 inh: 2.0; Ecoli growth: 0.65; FGF22 binding: .; HNF4A DNA FP: -1.7; Beta2AR agonist: -10; ALR H2O2 inh: -4; LANA-H2A inh: 3.4
`Cc1cc(C)n(-c2nc(C)nc3c2cnn3-c2ccccc2)n1` as listed: UCH37 inh: -2.4; Ecoli growth: 0.68; FGF22 binding: i; HNF4A DNA FP: 3.0; Beta2AR agonist: 8; ALR H2O2 inh: -4; LANA-H2A inh: 2.6
`Cc1c(NC(=S)N/N=C\c2ccccc2O)c(=O)n(-c2ccccc2)n1C` as listed: UCH37 inh: .; Ecoli growth: .; FGF22 binding: i; HNF4A DNA FP: 0.6; Beta2AR agonist: 4; ALR H2O2 inh: 39; LANA-H2A inh: 1.4

Next section:
SMILES	UCH37 inh	Ecoli growth	FGF22 binding	HNF4A DNA FP	Beta2AR agonist	ALR H2O2 inh	LANA-H2A inh
COc1cccc(-c2nnn(CC(=O)NC3CCCC3)n2)c1OC	0.7	0.68	.	4.1	-5	0	2.9
CCOc1ccc(S(=O)(=O)N2CCC(C(=O)N3CCCC3)CC2)cc1C	3.0	0.65	i	1.7	-17	0	0.4
O=C(CNC(=O)c1ccccc1)OC(C(=O)Nc1cc(C(F)(F)F)ccc1Cl)c1ccccc1 (stereo unspecified)	3.0	0.74	.	-4.0	4	-15	-3.4
CCc1nnc(NC(=O)CSc2nnc(C3CC3)n2C)s1	4.4	0.68	i	1.4	0	-6	-1.4
COc1cccc(NC(=O)Nc2cccn(Cc3ccccc3)c2=O)c1	-8.8	0.7	.	0.0	3	.	-1.9
Cc1ccc2c(COC(=O)c3n[nH]c4ccccc34)cc(=O)oc2c1	-12	0.68	.	0.9	1	-9	-1.2
COc1ccc(C)cc1-n1c(SCC(=O)NCC2CCCO2)nc2c([nH]c3ccccc32)c1=O (stereo unspecified)	-3.3	0.69	i	3.0	-5	-20	1.0
Cc1cc(C(=O)CSc2ccc(Cl)cc2)cc(C)c1OC(=S)N(C)C	1.7	0.73	.	-3.5	4	.	-1.4
CC(C)Cc1nnc(NS(=O)(=O)c2ccc([N+](=O)[O-])cc2)s1	5.5	0.64	i	-0.7	3	-13	-2.1
CC(=NNC(=O)c1ccncc1)c1ccc(Cl)cc1Cl	2.2	0.69	i	0.9	-5	.	.
CC(C)(C)c1ccc(C(=O)Nc2cccc(-n3cnnn3)c2)cc1	-1.4	0.64	i	-3.1	17	4	-5.7
Cn1c(SCC(=O)OC2CCCCC2)nnc1-c1ccc2c(c1)OCO2	5.0	0.7	.	-4.2	9	-1	-10
O=C(COC(=O)Cc1ccc2c(c1)OCCO2)Nc1ccc(S(=O)(=O)N2CCCC2)cc1	-0.1	0.79	.	3.8	-5	14	-5.7
COc1ccc(C2=CC(=O)CC(C)(C)C2)cc1OC	-2.0	0.65	i	-3.8	-3	-7	11
CCOC(=O)c1c(NC(=S)Nc2ccc(OC)cc2)sc2c1CCCCC2	5.3	0.66	i	-1.2	10	-1	5.0
O=C(C1CCCN(S(=O)(=O)c2cccc3nsnc23)C1)N1CCc2ccccc21 (stereo unspecified)	2.6	0.69	.	0.0	-5	-6	-1.6
Cc1c(C(=O)N2c3ccccc3CC2C)oc2ccccc12 (stereo unspecified)	3.3	0.72	i	2.8	4	-1	-3.6
CCc1ccc(NC(=O)CCNS(=O)(=O)c2cccc3nonc23)cc1	-1.5	0.67	.	9.9	0	-4	1.9
Cc1ccc(CCNC(=O)C23C[C@H]4C[C@@H](C2)CC(n2nnc(C)n2)(C4)C3)cc1	0.6	0.66	i	2.8	-12	0	2.3
O=C(Nc1nnc(COc2ccccc2F)s1)Nc1ccccc1F	1.7	0.73	i	-2.9	-2	-1	-6.6
O=C(NC1CCCCC1)c1ccc(CS(=O)(=O)c2ccc(Cl)cc2)o1	1.3	0.7	i	-1.8	-12	-2	-0.5
CCOC(=O)c1c(NC(=O)c2ccc(Cl)s2)sc(C)c1C	-86	0.76	i	4.8	-16	37	1.9
CC(C)OC(=O)c1nnc(Cc2ccc(Cl)cc2)o1	1.6	0.71	i	2.9	4	-9	-0.7
CCCCN=C1NC(=O)C(CC(=O)NCCc2ccc(OC)cc2)S1 (stereo unspecified)	0.8	0.69	i	2.6	2	-6	1.3
Cc1ccc(C(=O)NNC(=O)c2csc(N3CCOCC3)n2)o1	2.0	0.69	i	0.2	5	.	1.8
O=c1[nH]c2ccccc2n1CCCSc1cnc2ccccc2n1	0.7	0.71	.	-1.1	-16	-1	1.4
O=C1NN(c2ccccc2)C(=O)/C1=C\c1ccccc1OCC(=O)N1CCOCC1	5.7	0.68	.	2.4	-2	99*	-2.9
CCOC(=O)Cc1csc(NC(=O)c2cc3ccccc3o2)n1	2.2	0.72	.	-3.2	5	-5	9.0
CCCCNC(=O)c1ccc(-n2c(=S)[nH]c3ccccc3c2=O)cc1	2.8	0.68	i	-2.3	-5	1	-2.4
CC(C)CC1NC(=O)N(CC(=O)Nc2cc(F)ccc2F)C1=O (stereo unspecified)	3.9	0.69	i	-0.5	-4	15	-3.2
CCC1CCCCN1C(=O)COc1ccc(F)cc1 (stereo unspecified)	0.2	0.7	i	2.7	1	1	4.8
CC(C)CN(C(=O)COC(=O)c1ccc(Br)cc1)c1c(N)n(Cc2ccccc2)c(=O)[nH]c1=O	2.1	0.69	i	0.9	-4	0	3.0
O=C(Cn1cnc2cc([N+](=O)[O-])ccc2c1=O)NCc1ccccc1	0.4	0.71	i	-0.4	4	-4	.
Cc1cc(C)n(-c2nnc3n2N=C(c2ccccc2)CS3)n1	1.2	0.68	.	3.2	-6	-2	0.6
CC1=CC(C)(C)[N+](C)(C)c2ccc(C)cc21	0.6	0.71	i	4.2	3	2	-1.9
O=C(O)C1=C(C2CCCCC2)C(=O)c2ccccc21	.	.	i	-3.4	3	.	.
CCN(CC(=O)Nc1ccc(OC)cc1)C(=O)CCS(=O)(=O)c1ccc(C)cc1	1.3	0.71	i	1.0	1	-4	0.0
O=C(CC(Cc1ccccc1)c1ccco1)NCc1ccco1 (stereo unspecified)	1.0	0.63	i	3.2	-3	3	-0.1

High-throughput results deposited in PubChem by several laboratories.

An excerpt, so the mix of outcomes need not match the whole.
